Screening data: PubChem, several laboratories
MT1-MMP promoter – MT1-MMP gene expression reporter suppression – cell-based, luciferase reporter, luminescence (AID 618); actives 0.62% (n = 87,000); MT1-MMP promoter luciferase reporter cells, luminescence; calls from a first round at 10 µM; hits with a dose series show EC50 in µM;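 active means over half of the reporter light lost at 10 µM or EC50 under 50 µM; inactive means the rest and hits that failed the dose series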;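 further: actives suppress MT1-MMP promoter-driven transcription so potencies describe inhibitors; HT1080 fibrosarcoma cells; overnight exposure; toxic or luciferase-blocking compounds were not removed from the actives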
Hsc70 – small molecules displacing fluorescent ligand from Hsc70 – biochemical, fluorescence polarization, primary screen (AID 568); Hsc70 fluorescence polarization, probe displacement; higher % means a stronger effect; strong numbers were not always called active; displacement, % at 20 µM; hits with a dose series show IC50 in µM; 83,000 tested, under 10 active;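 active means displacement above 50% without optical interference and an IC50 on retest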;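 further: ATPase domain with a fluorescein-tagged ATP probe; 0% = vehicle and 100% = excess ADP; read after one hour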
WNV NS2B-NS3 inh – inhibitors of West Nile virus NS2B-NS3 protease; WNV NS2B-NS3 protease, fluorogenic substrate Ex360/Em465; stronger effect = lower value; z-score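 (tested at a level between 10 and 100 µM)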; actives 0.18% (n = 65,000); AID 577;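 active means z-score at -3 or under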;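 further: score is relative to mean and spread of the compound wells of a plate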
Target sequence (P06935 1371-1501 limits assumed): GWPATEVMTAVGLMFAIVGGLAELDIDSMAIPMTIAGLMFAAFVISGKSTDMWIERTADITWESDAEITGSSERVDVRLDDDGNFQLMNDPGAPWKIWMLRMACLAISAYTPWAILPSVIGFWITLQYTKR
Target sequence (P06935 1502-1679 limits assumed): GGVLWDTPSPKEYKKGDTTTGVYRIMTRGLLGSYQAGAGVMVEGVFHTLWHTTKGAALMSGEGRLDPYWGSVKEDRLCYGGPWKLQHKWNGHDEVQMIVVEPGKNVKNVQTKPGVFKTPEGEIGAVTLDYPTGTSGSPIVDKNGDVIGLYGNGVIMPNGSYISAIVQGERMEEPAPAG
* marks the source's active call; other numbers are inactive results; i = inactive; nt = no result given. Compounds as they come. About 0.77% of those tested had a hit in this group.

Values run as follows: WNV NS2B-NS3 inh, MT1-MMP promoter, Hsc70
N=C1C(c2ccc(Br)cc2)=C(O)C2CCc3ccccc3N12 (stereo unspecified)
→ 1.07, i, 4.5%
C=C(C)Cn1c(C(C)NC(=O)CCC)nc2ccccc21 (stereo unspecified)
→ 1.37, i, 0.3%
CCOC(=O)c1ccc(N2C(=O)CC(Nc3ccc(CCO)cc3)C2=O)cc1 (stereo unspecified)
→ nt, i, 0.5%
CC(=O)C1CCN(Cc2ccccc2)CC1
→ nt, i, 3.4%
Cc1ccc(C(=O)Cn2cnc3ccccc3c2=O)cc1
→ nt, i, 1.5%
COc1ccccc1Cc1nc(-c2ccc(C)cc2)no1
→ -0.09, i, -0.3%
Cc1cccc(C(=O)NNC2=C(C(=O)C(F)(F)F)CCC2)c1O
→ nt, i, -0.4%
CCOC(=O)c1ccc(CSc2nnc(-c3ccncc3)n2N)cc1
→ -1.1, i, -3.3%
Cn1c(=O)n(CCc2ccccc2)c(=O)c2c1nc1n2CCCN1CCc1ccccc1
→ -0.24, i, -11.7%
COc1ccc(/C=N/n2c(SC)nnc2-c2ccccc2)c(OC)c1OC
→ -0.35, i, -0.5%
CCC(c1nnnn1C1CCCC1)N(Cc1cccs1)Cc1cc2cccc(C)c2[nH]c1=O (stereo unspecified)
→ -1.29, i, 7.1%
CCOC(=O)c1cncc(NC(=O)c2ccccc2)c1
→ 0.56, i, 2.8%
CCCCCCSc1nc(O)c(C2OC(=O)c3c2ccc(OC)c3OC)c(=O)n1CC (stereo unspecified)
→ nt, i, -0.8%
O=C(CCCn1c(SCC(=O)c2ccc(Cl)cc2)nc2ccccc2c1=O)NCc1ccco1
→ 0.29, i, -6.0%
N#Cc1cccc(C(c2nnnn2CCc2ccccc2)N2CCN(C3CCCCC3)CC2)c1 (stereo unspecified)
→ -0.42, i, 1.2%
COc1ccccc1C1(O)CC2CCC(C1)N2S(=O)(=O)c1ccc(C(C)=O)cc1 (stereo unspecified)
→ 0.72, i, -3.5%
CCOc1ccccc1CN1CCN(S(=O)(=O)CC)CC1
→ 1.85, i, 2.7%
CC(C)NC(=O)CSc1nnc(C2CC2)n1-c1ccccc1
→ nt, i, -1.3%
Cc1cc(C(=O)COC(=O)c2csc3c2CCCC3)c(C)n1C
→ 0.7, i, 6.6%
COc1ccc(CCC(=O)Nc2ccc(-c3noc(-c4ccc(OC)c(OC)c4)n3)cc2)cc1
→ 0.5, i, 0.8%
C[C@H](N)c1nnc(SCC(=O)c2ccc(Cl)cc2)o1
→ nt, i, -2.7%
O=C(Cn1nnc(-c2cccc(C(F)(F)F)c2)n1)N1CCCCCC1
→ nt, i, -0.2%
Cc1nn(Cc2ccccc2)c(C)c1NC(=O)c1cc2nc(-c3ccco3)cc(C(F)(F)F)n2n1
→ -0.16, i, -3.2%
CCn1c(=N)c(S(=O)(=O)c2ccc(F)cc2)cc2c(=O)n3ccccc3nc21
→ -0.13, i, -0.1%
Cc1ccc(C(C)C)cc1C(=O)CC1(O)C(=O)N(C)c2ccccc21 (stereo unspecified)
→ -1.26, i, -9.9%
Cc1cccc(N(CC(=O)NCc2ccc3c(c2)OCO3)C(=O)CCC(=O)Nc2ccccn2)c1
→ 1.3, i, 1.3%
COc1ccc(C2NC(=O)NC(C)=C2C(=O)Nc2cccc(C)c2C)cc1 (stereo unspecified)
→ -0.49, i, 3.7%
Clc1cccc(Cl)c1COc1ccncc1
→ 0.01, i, -2.6%
COc1ccc(CNC(=O)c2ccc(S(=O)(=O)N3CCCC3)cc2)cc1OC
→ nt, i, 0.9%
Cc1cccc(Nc2nnc(-c3ccc(C(=O)N4C[C@H]5C[C@H](C4)c4cccc(=O)n4C5)cc3)c3ccccc23)c1
→ nt, i, -5.9%

4 entries from above, with each value named.
Cc1cccc(C(=O)NNC2=C(C(=O)C(F)(F)F)CCC2)c1O
  WNV NS2B-NS3 inh: nt | MT1-MMP promoter: i | Hsc70: -0.4%

CCOC(=O)c1ccc(CSc2nnc(-c3ccncc3)n2N)cc1
  WNV NS2B-NS3 inh: -1.1 | MT1-MMP promoter: i | Hsc70: -3.3%

Cn1c(=O)n(CCc2ccccc2)c(=O)c2c1nc1n2CCCN1CCc1ccccc1
  WNV NS2B-NS3 inh: -0.24 | MT1-MMP promoter: i | Hsc70: -11.7%

COc1ccc(/C=N/n2c(SC)nnc2-c2ccccc2)c(OC)c1OC
  WNV NS2B-NS3 inh: -0.35 | MT1-MMP promoter: i | Hsc70: -0.5%

(continued)
Values run as follows: WNV NS2B-NS3 inh, MT1-MMP promoter, Hsc70
COc1ccccc1Cn1nnc2c(=O)[nH]c(C3CCN(C(=O)c4ccc(F)cc4)CC3)nc21
→ -0.36, i, -3.8%
CC1CCN(c2oc(Cc3cccc4ccccc34)nc2C#N)CC1
→ -0.49, i, -1.6%
CCOc1ccc2nc(NC(=O)CSc3nc4c(c(=O)n(C)c(=O)n4C)n3C(C)C)sc2c1
→ 0.06, i, -2.2%
Cn1cc(Cl)c(C(=O)N/N=C/c2ccc(OS(=O)(=O)c3ccccc3)cc2)n1
→ nt, i, -3.7%
CC1CCN(S(=O)(=O)c2ccc(-c3nnc(SCc4cccnc4)o3)cc2)CC1
→ -0.06, i, -1.1%
CC(=O)Nc1ccc(S(=O)(=O)NCc2cn3c(C)csc3n2)cc1
→ -1.3, i, 4.9%
c1ccc(-c2nnc(SCc3nnc(-c4cccs4)o3)o2)cc1
→ nt, i, -5.1%
COc1ccc(NS(=O)(=O)c2ccc(SC)cc2)c(OC)c1
→ nt, i, 2.4%
O=C(NCc1ccccc1F)C1CCN(C(=O)NCc2ccccc2)CC1
→ -0.54, i, 2.7%
CCOC(=O)N1CCN(C(=O)CSc2nnc(Cc3cccn3C)n2CCc2ccccc2)CC1
→ -0.49, i, -8.4%
COc1cc(OC)c(NC(=O)c2ccoc2C)cc1Cl
→ 0.37, i, -1.2%
COc1ccc(CNC(=O)C2CCN(S(=O)(=O)c3ccc(-c4nn[nH]n4)cc3)CC2)cc1
→ -0.81, i, -0.6%
COc1cc2c(C(=O)NC3CCCCCC3)cn(C)c(=O)c2cc1OC
→ 0.74, i, 2.9%
CC1Cc2ccccc2N1Cc1nc2scc(-c3cccs3)c2c(=O)[nH]1 (stereo unspecified)
→ -1.21, i, -11.1%
O=C(CSc1ncn[nH]1)NCCCc1ccccc1
→ -0.45, i, -0.4%
Clc1ccc2nc(CSc3nnc4ccccn34)cn2c1
→ nt, i, -1.2%
COC(=O)CN(c1nc(C)cc(OC)n1)S(=O)(=O)c1ccc(C)cc1
→ 0.67, i, -4.5%
Cc1nn(CC#N)c(=O)n1-c1ccc(F)cc1
→ nt, i, -0.4%
Cc1nc2ncnn2c(C)c1CCC(=O)N1CCN(c2ccccn2)CC1
→ 0.7, i, -4.7%
Nc1cc(=O)[nH]c(SCc2nc3ccccc3n2Cc2ccccc2)n1
→ -0.38, i, 1.8%
COc1ccccc1-n1cnc2cc(NCc3ccco3)ccc21
→ 0.97, i, -4.7%
COc1ccc(N2C(=O)CC(N3CCC(C(N)=O)CC3)C2=O)cc1 (stereo unspecified)
→ -0.56, i, -3.1%
CCn1c(COc2ccc(Cl)cc2)nnc1SCc1nc2ccccc2[nH]1
→ nt, i, 0.5%
O=c1c2cc3c(cc2[nH]c(=S)n1Cc1ccco1)OCO3
→ -0.62, i, -8.2%
O=C(NCCN1CCN(C(=O)c2cccs2)CC1)c1cccs1
→ 0.00901, i, 1.8%
COc1ccc(CNc2ccc(C(=O)O)cc2)cc1
→ 0.00228, i, -5.1%
Cc1cccc2cc(CN(CCN3CCOCC3)C(=O)Nc3ccccc3F)c(=O)[nH]c12
→ 0.44, i, -4.6%
CC1(C)C2CCC1(C)C(OC(=O)CC(=O)O)C2 (stereo unspecified)
→ -0.43, i, -0.2%
COc1cccc(Cn2nnc(C(=O)Nc3ccc(C)cc3)c2N)c1
→ -0.33, i, 2.4%
COC(=O)c1oc2ccc(Br)cc2c1NC(=O)CCCN1C(=O)c2ccccc2C1=O
→ -0.52, i, 0.0%
COc1cc(C2=NOC(C(=O)N3CCCCCC3)C2)cc(OC)c1OC (stereo unspecified)
→ -0.18, i, 0.9%
c1ccc(COc2nsnc2N2CCOCC2)cc1
→ 0.37, i, -4.1%
CCC(C)(C)n1nnnc1C(c1cc2cc(C)ccc2[nH]c1=O)N1CCCc2ccccc21 (stereo unspecified)
→ nt, i, 1.2%
Cc1ccc(NC(=O)/C(C#N)=C/c2cccs2)c(C)c1
→ nt, i, -5.4%
CC1(C)Nc2ccccc2N(CC(=O)N2CCCCC2)C1=O
→ 0.11, i, -3.7%
N#Cc1nc(-c2ccccc2F)oc1NCCc1ccccc1
→ nt, i, 4.1%
COC(=O)C1Cc2c([nH]c3ccccc23)CN1 (stereo unspecified)
→ -0.74, i, 5.0%
O=c1cc(-c2ccccc2)[nH]c2ccccc12
→ -1.43, i, -6.8%
CCSc1ccccc1C(=O)N1CCN(Cc2ccc3c(c2)OCO3)CC1
→ 1.23, i, -2.2%
Cc1cc(N)n2ncc(-c3ccc(Cl)cc3)c2n1
→ nt, i, 2.1%
O=C(NCC1CCCO1)C1CCC(CNS(=O)(=O)c2ccccc2)CC1 (stereo unspecified)
→ -0.56, i, -1.3%
CCC1=Nc2ccccc2NC2=C1C(=O)CCC2
→ 0.26, i, 9.5%
COc1ccc(-c2nc(=S)c3c(n2CCN2CCOCC2)CC(C)(C)OC3)cc1
→ 0.87, i, -2.3%
CCOC(=O)c1ccc(NC(=O)CN2CCN(CCN=CC3=C(O)CC(C)(C)CC3=O)CC2)cc1
→ -1.2, i, -0.6%
CCCS(=O)(=O)c1c(S(=O)(=O)CCC)c2cnccn2c1C(=O)c1ccc(F)cc1
→ 1.6, i, -2.9%
Cc1nc(N)nc(OCC(F)(F)C(F)F)c1Br
→ nt, i, -3.2%
Cc1nc2sc(C)c(C)c2c(=O)[nH]1
→ -1.03, i, 0.9%
COCCN(C(=O)C1CC1)c1nnc(-c2ccc(C)cc2)s1
→ nt, i, 0.8%
CCOc1ccc2nc(N3CCC(C(=O)Nc4nnc(CC)s4)CC3)sc2c1
→ 0.44, i, -2.3%
O=C(CCCc1ccccc1)Nc1cccnc1
→ nt, i, -5.0%
COc1ccc(NC(=O)CCCC(=O)OCC(F)(F)C(F)F)cc1
→ 0.24, i, -2.4%
CCOc1cc(C(=O)CSc2nnc(CNc3ccc(Cl)cc3)o2)ccc1NC(=O)CC
→ -0.76, i, -5.5%
CCc1cc2c(=O)c(-c3cscn3)coc2cc1OC
→ -1.17, i, 0.0%
COCCn1c(C)cc(C(=O)CSc2ncn[nH]2)c1C
→ -0.53, i, 3.2%
COc1cccc(NC(=O)CSc2nnc(CNC(=O)c3ccccc3)n2C)c1
→ 0.41, i, 5.5%
O=C1/C(=C/Nc2ccc3c(c2)OCO3)CCc2ccccc21
→ 0.85, 0.81µM*, -55.8%
CCOC(=O)N1CCN(c2cc(C)c(C(C)=O)cc2F)CC1
→ 0.19, i, -2.3%
CC(C)(C)Sc1ccc(N)nc1
→ 1.3, i, -4.8%
Cc1ccc(-n2cccc2C(=S)N=P(N(C)C)(N(C)C)N(C)C)cc1
→ 0.38, i, -2.3%
COc1ccc(OC)c(S(=O)(=O)Nc2ccccc2C(=O)O)c1
→ -0.42, i, -1.0%

Following part.
Values run as follows: WNV NS2B-NS3 inh, MT1-MMP promoter, Hsc70
CC(C)(C)C(=O)NC1CCN(S(C)(=O)=O)CC1
→ nt, i, 1.3%
Cc1nnc(NC(=O)CSc2cn(CCNC(=O)c3ccccc3)c3ccccc23)s1
→ 1.55, i, 5.4%
CC(=O)NC1=NN(C(C)=O)C(C)(c2cccs2)S1 (stereo unspecified)
→ nt, i, -0.4%
Cc1nnc(SCC(=O)N(C(C)C)C(C)C)nc1C
→ -0.11, i, -6.6%
CCC1c2ccc(C)n2CCN1C(=O)Nc1cc(Cl)ccc1OC (stereo unspecified)
→ 1.02, i, 7.4%
CCCn1nnnc1SCC(=O)NCc1ccc2c(c1)OCO2
→ -0.62, i, 1.0%
CCCc1ccc(-c2csc(NC(=O)Cc3cccs3)n2)cc1
→ nt, i, 6.2%
Cc1ccc2cc(C)c3nnc(SCC(=O)NCc4ccco4)n3c2c1
→ -0.49, i, -1.6%
CC1=NC(=O)C(N=Nc2cccc(O)c2)N1c1ccccc1 (stereo unspecified)
→ nt, i, -1.5%
COc1ccc(C(=O)Nc2c(F)c(F)c(F)c(F)c2F)c(OC)c1
→ -0.98, i, 2.8%
COC(=O)c1cccc(NC(=O)CCCOc2ccccc2)c1
→ nt, i, -4.0%
CSC1=NCCN1C(=O)COc1ccc2ccccc2c1
→ -1.7, i, 3.2%
COCCNC(=O)CS(=O)(=O)Cc1nc(-c2ccc(C)cc2)oc1C
→ -0.98, i, 1.0%
O=C1Nc2ccc(S(=O)(=O)N3CCCC3)c3ccc(S(=O)(=O)N4CCCC4)c1c23
→ 1.48, i, -3.5%
CCOC(=O)c1cnn(-c2ccccn2)c1N
→ -0.25, i, 1.8%
N#CC1=C(N)N(c2ccccc2)C(c2ccccc2)C1(C#N)C#N (stereo unspecified)
→ -0.61, i, -4.8%
CC(Oc1cccc2c1OC(C)(C)C2)C(=O)O (stereo unspecified)
→ nt, i, 2.3%
